# KCNQ2 block = KCNQ2 potassium channel inhibitors, primary screen, cell-based, CHO-K1, FluxOR thallium flux, B-score (AID 2156). 1.1% of 310,000 active. 20 min; hits give low values; only compounds with negative scores are shown here; some inactives read as strong as hits. B-score at 10 µM. O88943;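 active = fluorescence ratio B-score at most minus 3 library SDs, with starting brightness B-score within 2 library SDs, cut at about -5.5 in these data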
# Target sequence (O88943 whole entry, looked up): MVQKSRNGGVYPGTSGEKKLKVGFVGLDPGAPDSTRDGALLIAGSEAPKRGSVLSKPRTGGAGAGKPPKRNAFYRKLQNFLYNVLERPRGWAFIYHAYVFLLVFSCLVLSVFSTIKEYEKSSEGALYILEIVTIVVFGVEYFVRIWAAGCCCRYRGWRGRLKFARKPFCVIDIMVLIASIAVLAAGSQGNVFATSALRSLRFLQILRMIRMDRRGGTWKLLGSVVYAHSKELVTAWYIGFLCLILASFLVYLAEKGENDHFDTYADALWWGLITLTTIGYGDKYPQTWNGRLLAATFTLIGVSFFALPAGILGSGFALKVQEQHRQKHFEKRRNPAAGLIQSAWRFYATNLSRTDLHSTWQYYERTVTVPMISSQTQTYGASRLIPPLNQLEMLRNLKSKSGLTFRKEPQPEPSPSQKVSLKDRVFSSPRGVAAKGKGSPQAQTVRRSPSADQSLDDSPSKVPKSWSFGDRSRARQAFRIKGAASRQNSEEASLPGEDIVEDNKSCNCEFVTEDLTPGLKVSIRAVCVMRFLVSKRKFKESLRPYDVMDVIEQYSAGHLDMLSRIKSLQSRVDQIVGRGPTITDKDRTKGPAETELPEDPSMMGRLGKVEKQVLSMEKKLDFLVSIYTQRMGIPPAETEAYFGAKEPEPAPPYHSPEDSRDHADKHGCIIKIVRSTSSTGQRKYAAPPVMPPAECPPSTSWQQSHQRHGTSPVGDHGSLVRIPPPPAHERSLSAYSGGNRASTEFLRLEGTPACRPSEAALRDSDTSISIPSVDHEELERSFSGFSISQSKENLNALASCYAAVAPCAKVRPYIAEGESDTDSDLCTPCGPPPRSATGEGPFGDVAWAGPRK
# KCNQ2 block baseline = also measured in KCNQ2 block; calls as there; B-score; measured here: initial fluorescence intensity artifact check;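 brightness before thallium and not channel activity; 0 = typical well and far values either way flag optical interference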
# The depositor's hits bear a star; i = inactive. This is a subset; count on the stated rates, not on these rows.
KCNQ2 block,KCNQ2 block baseline,canonical_smiles
i,0.45,O=C1C2C3C=CC(C3)C2C(=O)N1c1ccc2ccccc2n1 (configuration not stated)
i,-1.7,CSc1nsc2nc(=O)c(/C=C3\C(C)=Nc4ccc(C)cc43)c(N)n12
i,0.02,COc1ccc(NC(=S)/N=C(\N)Nc2nc(C)c3ccc(C)cc3n2)cc1
i,-0.01,CCC(=O)N(Cc1cc2ccccc2[nH]c1=O)C(C)C
i,3.4,CCOc1ccc(S(=O)(=O)N2CCN(c3ccccc3OC)CC2)c2cccnc12
i,0.5,COCc1cc(C)nc2sc(C(=O)Nc3cccc(OC)c3)c(N)c12
i,-0.01,Cc1nn(C)c(C(=O)Nc2ccc(Cl)c([N+](=O)[O-])c2)c1Cl
i,-0.66,Cc1ccc(S(=O)(=O)Cc2cc(F)c([N+](=O)[O-])cc2[N+](=O)[O-])cc1
i,-0.11,CCN(CC)c1ccc(CNc2nc3ccccc3n2CCN2CCCCC2)cc1
i,2.9,CCOc1ccc(C2C=C(c3ccc(F)cc3)Nc3ncnn32)cc1 (configuration not stated)
i,0.02,CS(=O)(=O)N(CC(=O)NCC1CCCO1)c1cc(Cl)ccc1Cl (configuration not stated)
i,-0.86,CC(=O)c1ccc(N2CCN(C(=O)[C@H](C)NC(=O)c3ccccc3Cl)CC2)cc1
i,0.88,Cc1oc(-c2ccccc2F)nc1CN1CCC(C(=O)NC2CCCCCCC2)CC1
i,-1.9,O=C(COC(=O)c1cccnc1Cl)c1ccc(Cl)cc1Cl
i,-0.88,CC(C)c1cc(C(=O)N2CCCC(Nc3ccc(F)c(F)c3)C2)nc(N)n1 (configuration not stated)
i,0.35,O=C(CC(c1ccc(F)cc1)c1ccco1)N1CCOCC1 (configuration not stated)
i,-1.5,CCCCC(C(=O)NC(=O)NCc1ccccc1)N1C(=O)c2ccccc2C1=O (configuration not stated)
i,-0.37,Cc1ccc(C(OC(=O)c2ccco2)C(=O)NCc2cccs2)cc1 (configuration not stated)
i,0.91,S=C(NNc1ccnc2cc(Cl)ccc12)Nc1ccc(Cl)cc1Cl
i,0.01,CCSc1nnc(NC(=O)CSc2nnc(CNC(=O)c3ccc(OC)cc3)o2)s1
i,-0.39,CC(C)(C)n1nnnc1CN1CCSCC1
i,0.19,Cc1nn(-c2ccccc2)nc1C(=O)Nc1ccc2c(c1)OCCO2
i,-0.85,Cc1cccc(NC(=O)CC2C(=O)NCCN2C(=S)Nc2ccccc2)c1 (configuration not stated)
i,2.1,CC1(OC(=O)C2CCCC2)C(=O)C=C2C=C(c3ccsc3)N(CCc3ccccn3)C=C2C1=O (configuration not stated)
i,1.3,O=C(O)C1C2C=CC(C2)C1C(=O)Nc1cccc(C(F)(F)F)c1 (configuration not stated)
i,1,Cn1c(N)c(C(=O)COC(=O)CCOc2ccc(C(C)(C)C)cc2)c(=O)n(C)c1=O
i,4.1,Cc1ccc(S(=O)(=O)NNC(=O)CCC(=O)Nc2ccccc2)cc1
i,-0.11,Cc1ccc(C=NCc2ccncc2)c(O)c1
i,0.3,CCn1cc(/C=C(\NC(=O)c2ccccc2F)C(=O)N2CCOCC2)c2ccccc21
i,-0.65,Cc1onc(-c2ccc(Cl)cc2)c1-c1ccnn1S(=O)(=O)c1cccc(C(F)(F)F)c1
i,-2.2,O=C(c1ccccc1F)N1CCCC(C(=O)N2CCc3ccccc3C2)C1 (configuration not stated)
i,-0.27,COc1cccc(Oc2cc(NN3CCCCC3)c([N+](=O)[O-])cc2[N+](=O)[O-])c1OC
i,0.67,O=C(/C=C/c1ccccc1)NCCSCc1ccccc1Cl
i,0.1,CCc1ccc(N(C(=O)c2csnn2)C(C(=O)NC(C)(C)C)c2ccncc2)cc1 (configuration not stated)
i,0.84,CCC1CCCCN1CCNC(=O)C1CCCN(S(=O)(=O)c2cccc3nsnc23)C1 (configuration not stated)
i,0.29,Cc1ccc(NC(=O)CCCn2c(=O)[nH]c3ccsc3c2=O)cc1
i,5.5,Cc1nc2sccn2c(=O)c1S(=O)(=O)NCc1ccccc1
i,1.6,COc1ccc(/C(O)=C2/C(=O)C(=O)N(CCCN3CCOCC3)C2c2ccc(OC)cc2)cc1 (configuration not stated)
i,0.06,COc1ccccc1N1CCN(C(=O)C2C3C=CC4(CN(Cc5ccccc5Cl)C(=O)C24)O3)CC1 (configuration not stated)
i,-0.63,COc1ccc(N2CC(C(=O)Nc3c4c(nn3-c3ccccc3)CS(=O)(=O)C4)CC2=O)cc1 (configuration not stated)
i,-1,O=c1ccc(-c2ccc(S(=O)(=O)Nc3cccc(Br)c3)o2)n[nH]1
i,0.37,Cc1ccc(C)c(C(=O)COc2ncnc3ccccc23)c1
i,2.4,Cc1csc(/C(=N\O)c2csc(C)n2)n1
i,-0.03,CCO/N=C(\N)c1[nH]ncc1Br
i,0.15,COC(=O)c1c(N=CN(C)C)c(C#N)c2n1CCCC2
i,-1.8,Cc1ccc(CNC(=S)Nc2cc(C)ccc2OC(F)F)cc1
i,1.7,O=C(c1ccco1)N(Cc1ccc2c(c1)OCO2)Cc1cc2cc3c(cc2[nH]c1=O)OCO3
i,1.1,CCOC(=O)Cn1nc(-c2ccc(Cl)cc2)ccc1=O
-5.6*,1.9*,CCCCN(C)Cc1c(C(=O)N2CCc3ccccc3C2)nc2ccc(Cl)cn12
-6.2*,0.59*,Cc1cc(/C=N/n2cnnc2)c(C)n1-c1ccc(OCc2ccc(F)cc2)cc1
i,1.3,CN(Cc1ccccc1)C(=S)Nc1ccc2nc3n(c(=O)c2c1)CCCCC3
i,0.33,COCCCNCCCOc1ccc(Cl)cc1C(C)(C)C
i,0.06,COc1cc(OC)c(NC2c3ccccc3C(=O)N2c2cc(C)ccn2)cc1Cl (configuration not stated)
i,0.07,COc1ccc2c(c1)C(=O)N(c1ccccc1)C(=O)C2
i,-1.5,CC(=O)N1N=C(c2cccc([N+](=O)[O-])c2)OC1c1ccc(Br)cc1 (configuration not stated)
i,0.37,O=C(c1ccc2c(c1)CCN2S(=O)(=O)c1ccccc1)N1CCN(c2ccccc2)CC1
i,-2.4,Cc1ccc2c(-c3csc(N)n3)c[nH]c2c1
-8.7*,-0.19*,COc1ccc(-c2c[n+]3c4n2CCCCC4=C(c2ccc(Br)cc2)C3)cc1
i,0.78,Cc1nn(CC(=O)NCCCN2CCOCC2)c(C)c1[N+](=O)[O-]
i,-0.23,CCOC(=O)C1=C(N)n2c(s/c(=C\c3ccco3)c2=O)=C(C(=O)OCC)C1c1ccco1 (configuration not stated)

# (listing goes on)
KCNQ2 block,KCNQ2 block baseline,canonical_smiles
i,0.04,CC(C)CN(C(=O)COC(=O)c1nc(Cl)ccc1Cl)c1c(N)n(Cc2ccccc2)c(=O)[nH]c1=O
i,1.8,CCOc1cccc(CN2CCCC(N3CCN(c4cccc(Cl)c4)CC3)C2)c1O (configuration not stated)
i,1.3,COc1cc(C(=O)OCC(=O)NCc2ccc(F)cc2)ccc1OCC(C)C
i,2.9,O=C(NN1C(=O)C2C3C=CC(C3)C2C1=O)c1cccc(Cl)c1 (configuration not stated)
i,0.09,Cc1csc(NC(=O)c2ccc(Cl)cc2[N+](=O)[O-])n1
i,1.7,CCN1CCN(c2ccc(S(=O)(=O)N3CCCCC3)cc2NC(=O)c2ccc(OC(F)F)cc2)CC1
i,1.6,O=C1CCC/C(=N/NC(=O)c2sc3ccccc3c2Cl)C1
i,0.73,C/C(=N/O)c1cc(C(C)(C)C)c(O)c(C(C)(C)C)c1
i,-2.7,CCC1CCc2c(sc3ncnc(N4CCOCC4)c23)C1 (configuration not stated)
i,-1.4,CN(C)S(=O)(=O)CC12CCC(CC1=O)C2(C)C (configuration not stated)
i,-0.69,CC(C)C(NC(=O)C1CCC(C(C)(C)C)CC1)C(=O)NCCCN1CCCCC1 (configuration not stated)
i,2.6,Cn1c(=O)c2c(n3cnnc13)-c1ccccc1CC21CCCC1
i,0.83,CCc1nn(C(CC)C(=O)NCc2cccc(OC)c2)c(=O)c2cc3occc3n12 (configuration not stated)
i,0.48,COCCCNC(=O)c1c(N)n(-c2cccc(S(N)(=O)=O)c2)c2nc3ccccc3nc12
i,2.7,O=C(CSc1ccccc1)NCCc1ccc(F)cc1
i,-0.44,O=C(Cn1cc2c(n1)CCCC2)Nc1cc(-c2cccc(Cl)c2)no1
i,-0.44,COC(=O)c1ccc(CN2C(=O)C(C)N(C(=O)c3c(F)cccc3F)c3ccccc32)cc1 (configuration not stated)
i,1.9,CCSc1nc2c(c(=O)[nH]1)C(c1ccncc1)C(C(=O)OC(C)C)=C(C)N2 (configuration not stated)
i,0.88,Cn1c2ccccc2c2cnn(CC(=O)Nc3ccccc3Br)c(=O)c21
i,-1.8,O=[N+]([O-])c1ccc(Nc2nc(N/N=C/c3cccc(F)c3)nc(N3CCCC3)n2)cc1

# 3 structures already listed, sorted by number of heavy atoms, ascending:
KCNQ2 block,KCNQ2 block baseline,canonical_smiles
i,0.73,C/C(=N/O)c1cc(C(C)(C)C)c(O)c(C(C)(C)C)c1
i,2.6,Cn1c(=O)c2c(n3cnnc13)-c1ccccc1CC21CCCC1
i,1.9,CCSc1nc2c(c(=O)[nH]1)C(c1ccncc1)C(C(=O)OC(C)C)=C(C)N2 (configuration not stated)

# Entries of single compounds, quoted from the list. Values in the order: KCNQ2 block | KCNQ2 block baseline
# Entry for Cn1c2ccccc2c2cnn(CC(=O)Nc3ccccc3Br)c(=O)c21 → i | 0.88
# Entry for COC(=O)c1ccc(CN2C(=O)C(C)N(C(=O)c3c(F)cccc3F)c3ccccc32)cc1 (configuration not stated) → i | -0.44
# Entry for O=[N+]([O-])c1ccc(Nc2nc(N/N=C/c3cccc(F)c3)nc(N3CCCC3)n2)cc1 → i | -1.8
# Entry for C/C(=N/O)c1cc(C(C)(C)C)c(O)c(C(C)(C)C)c1 → i | 0.73
# Entry for Cn1c(=O)c2c(n3cnnc13)-c1ccccc1CC21CCCC1 → i | 2.6

# Further entries
KCNQ2 block,KCNQ2 block baseline,canonical_smiles
i,0.24,Cc1nnc(-c2cnn(C)c2N)n1Cc1ccccc1
i,-0.88,CCc1nnc(NC(=O)C2Cc3ccccc3C(=O)O2)s1 (configuration not stated)
i,0.11,COc1ccccc1N(CC(=O)Nc1cccnc1)S(C)(=O)=O
i,-0.05,NNC(=O)c1cccn(Cc2cccc(C(F)(F)F)c2)c1=O
i,-0.1,CN1C(=O)S/C(=C/c2cccn2-c2cccc(C(=O)O)c2)C1=O
i,-1.3,O=C(CSC1=NC(=O)C(c2ccccc2)C(=O)N1)Nc1cccc(Cl)c1 (configuration not stated)
i,0.58,CCc1ccc(NC(=O)c2cc(-c3cccs3)on2)cc1
i,0.26,Cn1cc(C(=O)N/N=C/c2cc(Br)cs2)c2ccccc21
i,0.22,O=C(COC(=O)C1(c2cccc(F)c2)CCCC1)NCc1ccc2c(c1)OCO2
i,-1,COc1ccc(N2CCN(C(=O)c3cc(-c4cccs4)nc4ccccc34)CC2)cc1
i,2.4,CC(=O)c1ccc(N(C(=O)c2csnn2)C(C(=O)NC2CCCC2)c2ccccc2)cc1 (configuration not stated)
i,-0.36,C=CCNC(=O)COc1ccc(S(=O)(=O)N2CCCC2)cc1
i,-0.12,COc1ccc(OCCCC(=O)Nc2cccc(SC)c2)cc1
i,-0.42,CCOC(=O)C1(Cc2cccc(Cl)c2)CCCN(C(=O)C2CC2)C1 (configuration not stated)
i,-0.98,O=C(CC1C(=O)NCCN1Cc1ccc(F)cc1)NC1CCCCCCC1 (configuration not stated)
i,2.4,O=C(NC(=S)Nc1ncccn1)c1ccccc1Cl
i,0.39,CCN(CC)c1ccc(NC(=O)COc2ccccc2C#N)cc1S(=O)(=O)Nc1ccccc1OC
i,0.53,COc1cccc(/C=C2\Oc3cc(OC(=O)N4CCOCC4)ccc3C2=O)c1
i,-0.01,COc1cc(/C=N/NC(=O)CCc2c(C)n[nH]c2C)ccc1O
i,-3,O=C(Cn1c(=O)n(Cc2ccc3c(c2)OCO3)c(=O)c2ccccc21)N1CCCc2ccccc21

# Retrieved by structure from the list above, two records:
KCNQ2 block,KCNQ2 block baseline,canonical_smiles
i,-0.01,COc1cc(/C=N/NC(=O)CCc2c(C)n[nH]c2C)ccc1O
i,0.26,Cn1cc(C(=O)N/N=C/c2cc(Br)cs2)c2ccccc21

# Following part.
KCNQ2 block,KCNQ2 block baseline,canonical_smiles
i,3,COc1ccc(Nc2nc3c(C)cccn3c(=O)c2C=O)cc1
i,-0.92,CC(C)CCNC(=O)CN1N=C(c2ccc(Cl)cc2)CCC1=O
i,-0.88,CCC(CC)C(=O)c1c[nH]c(C(=O)NCc2ccc(F)cc2)c1
i,0.92,CN1CCCN(C(=O)c2ccc(Cl)cc2)CC1
i,-1.6,Cc1ccc(C(=O)Nc2c(C)cc(C)c3cccnc23)cc1
i,0.63,N#CCCn1cc(CNCc2ccccc2)c(-c2cccc([N+](=O)[O-])c2)n1
i,-0.51,COC(=O)c1oc2c(c1C)C1(CCC2)SCCS1
i,-0.57,CN1CCCC(OC(=O)c2ccc(Cl)cc2)C1 (configuration not stated)
i,-0.04,Cc1c(C(=O)Nc2ccc(F)cc2)oc2ccc(S(=O)(=O)N3CCCC3)cc12
i,0.1,CC(C)=C1C2CCC1C1C(=O)N(CCc3ccccc3)C(=O)C21 (configuration not stated)
i,-2.6,Cc1cccc(NC(=S)NNC(=O)c2ccc(O)cc2O)c1C
i,-0.35,N#Cc1cccc(C(c2nnnn2C2CCCC2)N2CCCCCC2)c1 (configuration not stated)
i,0.53,O=C(OC(C(=O)NCc1ccc(F)cc1)c1ccccc1)c1ccco1 (configuration not stated)

# Bioassay records deposited in PubChem by Johns Hopkins Ion Channel Center.
